Assay outcomes as filed in PubChem.
RanGTP-Imp inh: inhibitors of RanGTP-importin-beta interaction, primary screen, biochemical, FRET, CFP-Ran, YFP-importin-beta, homogeneous. cell-free CFP-Ran/YFP-importin-beta FRET ratio. inhibition, % (test concentration not listed). 300,000 tested, 1.1% active. AID 2216;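 active = most replicates above 15%; inconclusive = exactly half above 15%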;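 note: 0% = DMSO wells and 100% = Ran loaded with GDP instead of GTP; wells of about 40 µL received 100 nL stock; the first replicate is given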
Beta apoptosis: beta cell apoptosis inhibition | AID 435005 | 300,000 tested, 0.8% active | protection from apoptosis, % (test concentration not listed) | INS-1E cytokine-induced death, ATP luminescence, 48 h; percent of positive-control rescue, neutral wells zero;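 active = all replicates at 75% or more, or half of them and the mean; inconclusive = half reach 75% but not the mean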;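 note: 0% = cytokine-treated negative control wells and 100% = positive control rescue; higher means more ATP so stronger rescue from cytokine killing; wells of about 40 µL received 100 nL stock; the first replicate is given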
Beta2AR agonist: human beta-2 adrenergic receptor agonism by FAP; 340,000 tested, 0.43% active; AID 504454; P07550; response, % (no concentration beside the values); Am2.2-beta2AR cells, FAP receptor internalization, flow cytometry; reference of the scale not given here;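 active = response above a set limit, near 3 SD of response in nonfluorescent compounds, cut at about 42% in these data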;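 note: stock transfer was 100 nL into about 11 µL; a reference agonist was the positive control; negative values mostly stem from fluorescent compounds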
Target sequence (P07550 whole entry, looked up): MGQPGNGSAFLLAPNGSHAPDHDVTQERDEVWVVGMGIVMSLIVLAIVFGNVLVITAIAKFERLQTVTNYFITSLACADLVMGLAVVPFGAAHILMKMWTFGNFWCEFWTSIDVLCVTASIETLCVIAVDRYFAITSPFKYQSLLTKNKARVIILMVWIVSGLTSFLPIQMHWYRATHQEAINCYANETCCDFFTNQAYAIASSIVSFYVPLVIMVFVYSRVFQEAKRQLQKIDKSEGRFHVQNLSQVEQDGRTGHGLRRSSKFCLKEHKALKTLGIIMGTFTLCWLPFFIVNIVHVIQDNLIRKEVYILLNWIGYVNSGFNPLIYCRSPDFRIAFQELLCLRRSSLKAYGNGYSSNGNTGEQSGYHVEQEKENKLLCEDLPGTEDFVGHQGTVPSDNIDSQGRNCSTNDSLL
LANA-H2B inh: blocks KSHV LANA binding to histone H2A/H2B; Q9QR71; cell-free LANA-H2A/H2B peptide, fluorescence polarization; inhibition, % (no concentration beside the values); 320,000 tested, 0.6% active; AID 2629; in the data active = inhibition mostly above about 10%, no sharp cut-off; inactive = mostly below about 6.7%;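 note: stock transfer was 7.5 nL into about 10 µL; 0% = median of vehicle wells and 100% = median of positive control wells; one replicate is shown; the record names a cut of 25% in any replicate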
A1 inh: inhibitors of the anti-apoptotic protein A1, read as caspase activation | caspase activation, % (concentration not given with the values) | 330,000 tested, 0.066% active | MEF A1-2A-BIM cells, Caspase-Glo 3/7 luminescence, 3 h; percent of clofoctol response, vehicle zero;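 active = over half of replicate activation scores above 10%, or exactly half above 10 with the replicate mean above 10; inconclusive = replicate mean below 10 yet half the replicates above 10; inactive = over half of replicates below 10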;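 note: wells of about 30 µL received 50 nL stock; many hits fall short of the cut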
UCH37 inh: human UCH37 deubiquitinating enzyme inhibition. Q9Y5K5. inhibition, % (concentration not given with the values). AID 588478. 330,000 tested, 0.33% active. purified proteasome/UCH37, Ub-AMC cleavage fluorescence;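 active = mean of two replicates above 20%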;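 note: 0% = compound-free wells with enzyme and 100% = wells lacking proteasome; stock transfer was 100 nL into about 20 µL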
Target sequence (Q9Y5K5 whole entry, looked up): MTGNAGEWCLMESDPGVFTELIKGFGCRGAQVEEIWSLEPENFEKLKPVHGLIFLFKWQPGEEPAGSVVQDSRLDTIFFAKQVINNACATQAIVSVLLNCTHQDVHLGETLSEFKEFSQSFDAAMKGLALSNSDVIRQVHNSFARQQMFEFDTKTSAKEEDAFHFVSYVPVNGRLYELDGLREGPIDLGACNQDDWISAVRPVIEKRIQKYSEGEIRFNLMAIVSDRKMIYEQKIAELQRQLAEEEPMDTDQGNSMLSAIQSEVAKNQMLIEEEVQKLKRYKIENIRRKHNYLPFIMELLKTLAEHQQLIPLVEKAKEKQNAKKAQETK
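Reagent: Ub-AMC substrate; assay system: Proteasome-associated human UCH37 deubiquitinase; controls: no-proteasome and no-compound wells; read-out: % inhibition of Ub-AMC cleavage fluorescence; timing: 30 min preincubation with enzyme, 25 min cleavage at room temperature; signal: AMC fluorescence from Ub-AMC cleavage, excitation 355 nm, emission 460 nm; buffer or medium: Tris-HCl pH 7.4 plus ovalbumin, ATP-MgCl2, DTT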
T cruzi inh: T. cruzi replication inhibition. T. cruzi beta-gal in NIH3T3, luminescence, 90 h. AID 1885. inhibition, % (no concentration beside the values). 300,000 tested, 1.4% active;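 active = mean inhibition across valid replicates above about 55%, limit read from the data; inconclusive = mean below that limit but half or more replicates reach it; inactive = mean below it, under half of replicates reach it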;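 note: signal also drops with host cell toxicity which is not excluded here; 0% = plate median of DMSO wells and 100% = zero luminescence signal; higher percent means less beta-gal luminescence so fewer parasites; stock transfer was 50 nL into about 50 µL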
Calb FLC: affects C. albicans growth with fluconazole | C. albicans CaCi-2 (fluconazole-resistant clinical isolate) + fluconazole, Alamar Blue growth, 48 h | growth inhibition, % (no concentration beside the values) | AID 1979 | 300,000 tested, 0.57% active;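 active = most replicates above 75%; inconclusive = exactly half above 75%; inactive = most below 75%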;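 note: all wells also contain fluconazole at 8 µg/ml as a sub-toxic cotreatment; 0% = median of DMSO wells and 100% = median of geldanamycin control wells; wells of about 8 µL received 7.5 nL stock; the first replicate is given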
* = called active by the depositor; ? = inconclusive; nt = no result given.

No.	canonical_smiles	RanGTP-Imp inh	Beta apoptosis	Beta2AR agonist	LANA-H2B inh	A1 inh	UCH37 inh	T cruzi inh	Calb FLC
1	CC(NC(=O)C(=O)NN=C1CCCCCCC1)c1ccccc1 (stereo not given)	2.2	2	-7	-4.1	0.0	0.2	-1	4
2	NC(=S)NN=C1c2cc(OCCN3CCOCC3)ccc2-c2ccc(OCCN3CCOCC3)cc21	-2.7	-1	26	-0.4	-0.1	12	36	5
3	CC(Sc1nc2ccccc2c(=O)n1C)C(=O)N(C)C1CCCCC1 (stereo not given)	1.3	50	3	-31	-0.2	0.7	11	-6
4	O=C(OCC(=O)N1CCC(Cc2ccccc2)CC1)c1ccc[nH]c1=O	0.4	-5	-3	3.1	-0.2	-6.3	-4	nt
5	CCn1c(=O)c(C(=O)Nc2ccccn2)c(O)c2ccccc21	-1.5	?	-8	2.2	0.4	-2.8	-11	1
6	Clc1ccc(-n2nnnc2CN2CCOCC2)cc1Cl	2.9	-8	-3	-5.7	0.4	2.3	21	-1
7	O=C(CNc1cc(S(=O)(=O)N2CCOCC2)ccc1N1CCCC1)NCc1ccco1	-0.8	-2	-2	-3.1	-0.2	3.6	7	4
8	CCOC(=O)c1cc2cc(-c3c(C(=O)OCC)oc4cc(O)cc(O)c4c3=O)ccc2o1	nt	nt	24	4.9	0.3	4.1	nt	nt
9	O=C(CNC(=O)c1ccco1)OCc1c(F)cccc1Cl	5.6	-9	0	3.7	0.4	nt	-8	-8
10	COc1cc(C(=O)NCCc2ccc(F)cc2)ccc1OCC(=O)N1CCOCC1	-1.6	nt	7	5.6	-0.6	-0.9	22	-17
11	Cc1cccc(N2CCN(C(=O)NCc3ccc(Cl)cc3)CC2)c1	2.2	nt	-11	3.2	-0.2	2.2	-25	-25
12	COc1c(Cl)cc(C(=O)NN)cc1Cl	4.3	9	8	1.0	-0.7	2.3	16	15
13	COc1ccc(N2CCN(CCNC(=O)C3CCN(S(=O)(=O)c4cccs4)CC3)CC2)cc1	1.1	5	-3	-1.9	0.2	-0.4	5	-10
14	N#Cc1cccc2cccc(S(=O)(=O)N3CCOCC3)c12	nt	-3	3	2.9	-0.5	4.5	nt	nt
15	COc1ccc(C2=Nn3c(nnc3-c3ccco3)SC2)cc1OC	2.5	9	16	0.4	-1.5	7.9	-5	-1
16	O=C(NC(=S)N1CCN(c2c(Cl)cccc2[N+](=O)[O-])CC1)c1cccs1	-2.2	7	1	1.0	-0.5	-1.7	18	-3
17	COc1ccc(C(O)c2nccn2C)cc1 (stereo not given)	-0.4	-13	-2	0.5	0.5	2.4	7	-1
18	c1ccc(CNc2ccc(CNc3ncn[nH]3)cc2)cc1	7.7	-13	-3	-1.0	-1.4	3.3	12	-36
19	Cc1ccccc1COC[C@H](CC(C)C)N1CCN(C(=O)c2cccc(C(F)(F)F)c2)CCC1=O	-1.6	1	0	4.0	0.0	2.2	6	-4
20	CC1(C)CCCC2=C1CC1C(=O)N(c3ccccc3)C(=O)C1C2 (stereo not given)	5.2	-5	12	-4.8	0.2	1.2	19	4
21	COc1ccc(CCNC(=O)[C@@H](NC(=O)c2ccccc2F)C(C)C)cc1OC	1.3	4	0	2.5	0.4	4.4	-5	23
22	C=CCN1C(=O)C2(OCCO2)c2cc(C)ccc21	-0.6	-6	4	2.3	-0.8	2.9	24	0
23	Cc1nc(N/N=C/c2ccc(O)cc2O)cc(N2CCOCC2)n1	-3.0	2	22	-1.6	0.4	nt	13	8
24	CS(=O)(=O)Nc1cccc(C2=NN(C(=O)c3ccc(F)cc3)C(c3cccs3)C2)c1 (stereo not given)	-0.1	-5	0	2.4	0.2	0.6	-6	3
25	O=C(NCCN1CCOCC1)C(=O)NCC1CCCO1 (stereo not given)	2.4	-2	5	9.7	-1.0	-1.5	-6	30
26	Cc1ccc(NC(=O)CCNS(=O)(=O)c2ccc3[nH]c(=O)oc3c2)cc1	-0.3	1	8	-4.1	0.5	3.1	-7	-7
27	Nc1nc(SCC(=O)Nc2ccccc2C(F)(F)F)[nH]c(=O)c1-c1ccccc1	2.2	-4	3	2.4	0.1	4.0	-5	15
28	COc1cccc(-n2c(-c3cccc(S(=O)(=O)N(C)C)c3)n[nH]c2=S)c1	2.5	1	-2	-8.2	-0.7	3.7	-2	0
29	CCOC(=O)c1cc(-c2cc3ccccc3o2)n[nH]1	-1.9	1	11	1.1	-2.1	1.3	-5	-15
30	CC1(c2ccccc2)NC(=O)N(CC(=O)Nc2nnc(C3CC3)s2)C1=O (stereo not given)	0.8	-5	0	2.6	0.4	0.8	-10	-2
31	N#C/C(=C/c1ccc(N2CCOCC2)o1)c1nc2ccccc2[nH]1	nt	nt	-80	-51	-6.2	13	nt	nt
32	O=C(/C=C/c1ccccc1)NCc1cccnc1	1.0	-1	-6	3.0	-1.5	1.4	-2	-6
33	CCCCNC(=O)c1onc(CSc2ccc(F)c(F)c2)c1C(=O)O	-1.1	-8	-8	4.0	0.0	-0.5	4	-13
34	CCCc1cc(C(=O)NCc2cccnc2)no1	?	2	-7	0.9	0.3	1.1	-17	6
35	CCN(c1ccccc1)S(=O)(=O)c1ccc(C(=O)N2CC(C)CC(C)C2)cc1 (stereo not given)	2.4	4	-2	-2.3	0.2	1.8	24	-9
36	Cc1cccc(CN2CCC(n3nccc3NC(=O)CCCc3ccccc3)CC2)n1	-2.3	-15	-8	6.7	1.9	-2.9	14	0
37	COc1ccc(NC(=O)c2nc3ccccc3s2)cc1	-2.0	-5	-8	7.0	-6.0	1.4	-20	-8
38	COc1ccc(C(=O)NN2C(=O)C3C(c4ccccc4)C=CC(c4ccccc4)C3C2=O)cc1 (stereo not given)	-2.5	-5	6	-4.3	0.7	1.2	3	-48
39	CCC(C)NC(=O)c1cnn2c(C)c3c(nc12)CCCC3 (stereo not given)	-2.0	-5	-3	3.4	-0.6	-119	17	11
40	CC1CN(C(=S)Nc2cccc([N+](=O)[O-])c2)CC(C)O1 (stereo not given)	nt	-2	2	-1.3	2.1	2.5	nt	121*
41	Cc1cc(C)c2nc(C)cc(Nc3ccc(C(=O)N4CCOCC4)cc3)c2c1	?	17	7	2.8	0.4	14	6	17
42	O=C(Nc1ccc(OCC(=O)N2CCOCC2)cc1)Nc1cccc(Cl)c1	0.2	-1	-1	-2.8	0.2	4.3	-3	1
43	Cc1ccc2nc(NC(=O)c3cccs3)sc2c1	nt	23	1	-0.8	-12	-84	nt	nt
44	CCCCc1nc2ccccc2c(C(=O)O)c1C	nt	nt	-2	-1.2	1.0	2.1	-6	-18
45	CC(C)(C)NC(=O)c1ccc2c(c1)N(CC(=O)N1CCN(c3ccc(F)cc3)CC1)C(=O)C(C)(C)O2	7.6	4	4	-3.4	-0.2	3.3	18	?
46	Cn1cc(CN2CCC(n3nccc3NC(=O)CCOc3ccccc3)CC2)cn1	5.8	4	-4	3.1	0.2	0.4	-2	21
47	Cc1ccc(S(=O)(=O)NCC(=O)OCC(=O)NCCc2ccccc2)cc1	0.8	-3	-1	0.8	0.9	3.9	12	0
48	COCCCNC(=S)N1CCC(NC(=O)c2ccco2)CC1	-3.0	-3	-3	-0.5	0.1	1.4	-4	-4
49	CCc1ccc(OCC(=O)Nc2ccc(S(=O)(=O)Nc3cc(C)on3)cc2)c(Br)c1	-4.8	-1	15	-2.2	0.4	-0.7	-9	2
50	CC1CN(C(=S)NC(=O)c2cccc([N+](=O)[O-])c2)CC(C)O1 (stereo not given)	8.6	nt	1	-2.4	-0.7	1.6	-16	4

Next part.
No.	canonical_smiles	RanGTP-Imp inh	Beta apoptosis	Beta2AR agonist	LANA-H2B inh	A1 inh	UCH37 inh	T cruzi inh	Calb FLC
51	CNC(=O)c1c(NC(=O)c2ccco2)sc2c1CCCC2	2.2	3	8	-5.7	0.1	-4.3	16	29
52	c1ccc(-c2nnc(-c3ccncc3)o2)cc1	0.5	-3	-7	-1.4	-3.6	4.1	-13	6
53	O=C(CN1C(=O)c2ccccc2C1=O)OCC(=O)c1ccc(F)cc1	3.8	-2	-1	1.5	0.4	3.1	-10	2
54	S=C(NCc1ccco1)N1CCN(c2ccc(Cl)cc2)CC1	6.5	1	-8	2.7	-0.1	1.7	-7	1
55	O=C(Nc1cccnc1)C12CC3CC(CC(C3)C1)C2	-0.2	-3	-1	-1.3	-0.6	-2.8	-2	-4
56	NNC(=O)COc1ccccc1F	-0.3	-3	-7	-2.1	0.3	-0.2	-25	-1
57	Cc1ccccc1NC(=O)Cc1nc(COC(=O)c2cc(Cl)ccc2O)cs1	-0.6	7	7	0.3	-0.1	-29	3	-11
58	O=C(COc1coc(CN2CCN(c3ccccc3F)CC2)cc1=O)N1CCc2ccccc21	5.6	nt	0	2.4	-0.4	-0.9	6	4
59	CC(Sc1ncccn1)C(=O)NC1CCCC1 (stereo not given)	nt	-4	-3	4.6	0.0	1.4	nt	nt
60	S=C(Nc1ccc(Cl)cc1Cl)Nc1ccccc1Oc1ccccc1	2.6	-7	-9	0.2	0.0	6.4	4	-3
61	CCC12CN3CCN(CC(C3)/C1=N\NC(=O)c1ccc(F)cc1)C2	2.2	-4	4	-0.5	1.6	nt	-1	-4
62	CC(=O)O[C@H]1CSC[C@H]1NC(=O)c1ccccc1	0.7	-8	3	-13	0.9	-1.8	-3	11
63	CC(=O)Nc1nc2ccccc2n1Cc1ccccc1C	-1.3	-13	4	1.7	1.2	3.0	31	-6
64	Cc1c(C(=O)N2CCCCC2)nnn1-c1nonc1N	-2.1	-9	1	-0.8	0.2	7.1	-4	-2
65	COc1cc2c(ccc3cc(OC)c(OC)c(O)c32)cc1O	?	10	4	-1.4	0.0	3.7	18	16
66	N=C1/C(=C\c2coc3ccccc3c2=O)C(=O)N=C2SC(c3ccncc3)=NN12	-62	6	-8	-23	0.2	-8.5	-13	-4
67	O=C(O)COc1ccccc1/C=N/NC(=O)CSc1nnc(-c2ccc(Cl)cc2)n1C1CCCCC1	0.2	1	-3	-7.8	-0.2	nt	10	3
68	CCCc1nn2c(=O)cc(CSCC(=O)Nc3ccccc3OC)nc2s1	2.5	7	-4	-4.7	0.8	0.4	3	22
69	CC1CCCC(C)N1C(=O)COC(=O)c1ccc(O)cc1 (stereo not given)	8.7	-4	5	0.4	0.7	6.1	-10	3

Single records (already shown).
c1ccc(-c2nnc(-c3ccncc3)o2)cc1 across the screens: RanGTP-Imp inh: 0.5; Beta apoptosis: -3; Beta2AR agonist: -7; LANA-H2B inh: -1.4; A1 inh: -3.6; UCH37 inh: 4.1; T cruzi inh: -13; Calb FLC: 6
CC(=O)Nc1nc2ccccc2n1Cc1ccccc1C across the screens: RanGTP-Imp inh: -1.3; Beta apoptosis: -13; Beta2AR agonist: 4; LANA-H2B inh: 1.7; A1 inh: 1.2; UCH37 inh: 3.0; T cruzi inh: 31; Calb FLC: -6
